Hsc70 – Hsc70 inhibitors, probe displacement, primary screen, biochemical, fluorescence polarization (AID 568). Hsc70 fluorescence polarization, probe displacement; higher % means a stronger effect; strong numbers were not always called active. 83,000 tested, under 10 active. displacement, % at 20 µM; hits with a dose series show IC50 in µM;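 active means displacement above 50% without optical interference and an IC50 on retest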;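 further: ATPase domain with a fluorescein-tagged ATP probe; 0% = vehicle and 100% = excess ADP; read after one hour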
WNV protease inh – inhibitors of West Nile virus NS2B-NS3 protease; z-score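 (tested at a level between 10 and 100 µM)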; AID 577; WNV NS2B-NS3 protease, fluorogenic substrate Ex360/Em465; stronger effect = lower value; P06935; 0.18% of 65,000 active;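 active means z-score at -3 or under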;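 further: score is relative to mean and spread of the compound wells of a plate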
Target sequence (P06935 1371-1501 limits assumed): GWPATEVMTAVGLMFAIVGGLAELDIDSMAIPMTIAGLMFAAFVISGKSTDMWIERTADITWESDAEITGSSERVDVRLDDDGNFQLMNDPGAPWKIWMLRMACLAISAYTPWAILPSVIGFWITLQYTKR
Target sequence (P06935 1502-1679 limits assumed): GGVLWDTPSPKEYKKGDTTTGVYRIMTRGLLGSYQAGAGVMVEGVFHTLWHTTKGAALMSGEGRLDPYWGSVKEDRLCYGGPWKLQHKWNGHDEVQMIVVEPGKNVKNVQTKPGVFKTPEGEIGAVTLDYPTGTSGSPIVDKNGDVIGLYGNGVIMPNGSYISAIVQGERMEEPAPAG
MT1-MMP reporter – inhibitors of MT1-MMP promoter transcription, cell-based, luciferase reporter, luminescence (AID 618); MT1-MMP promoter luciferase reporter cells, luminescence; 0.62% of 87,000 active; calls from a first round at 10 µM; hits with a dose series show EC50 in µM;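 active means over half of the reporter light lost at 10 µM or EC50 under 50 µM; inactive means the rest and hits that failed the dose series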;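 further: actives suppress MT1-MMP promoter-driven transcription so potencies describe inhibitors; HT1080 fibrosarcoma cells; overnight exposure; toxic or luciferase-blocking compounds were not removed from the actives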
* marks the source's active call; other numbers are inactive results; i = inactive; · = not tested or not shown.

(1) O=C(Oc1ccc(-c2cn3c(n2)SCC3)cc1)c1ccccc1
  Hsc70: -2.4% | WNV protease inh: 0.18 | MT1-MMP reporter: i
(2) CC1=C(C(N)=O)C(c2ccc(Cl)cc2)NC(=O)N1 (stereo unspecified)
  Hsc70: -2.1% | WNV protease inh: -0.04 | MT1-MMP reporter: i
(3) O=C(NCc1cccs1)C1CCN(S(=O)(=O)c2ccc3c(c2)OCCO3)CC1
  Hsc70: -6.3% | WNV protease inh: -0.53 | MT1-MMP reporter: i
(4) C=CCn1nnnc1SCC(=O)Nc1ccccc1C(=O)OC
  Hsc70: 7.9% | WNV protease inh: 0.2 | MT1-MMP reporter: i
(5) COCCCNC(=O)c1ccc(Cn2c(=O)[nH]c3ccccc3c2=O)cc1
  Hsc70: 1.0% | WNV protease inh: -1.1 | MT1-MMP reporter: i
(6) CN(C)CCNc1nc2c(c(=O)[nH]c(=O)n2C)n1CC(O)COc1ccc(Cl)cc1Cl (stereo unspecified)
  Hsc70: -5.9% | WNV protease inh: 0.93 | MT1-MMP reporter: i
(7) c1coc(CNc2nc(N3CCCCC3)nc3ccccc23)c1
  Hsc70: -3.2% | WNV protease inh: -0.67 | MT1-MMP reporter: i
(8) CCOC(=O)C1(Cc2ccc(O)cc2)NC(c2ccccc2F)C2C(=O)N(C)C(=O)C21 (stereo unspecified)
  Hsc70: -3.7% | WNV protease inh: 0.23 | MT1-MMP reporter: i
(9) CS(=O)(=O)c1ncc(Cl)c(C(=O)Nc2ccc(N3CCOCC3)cc2)n1
  Hsc70: 2.7% | WNV protease inh: -1.4 | MT1-MMP reporter: i
(10) Cc1ccc(NC(=O)CSc2nccc(=O)[nH]2)c(S(=O)(=O)N2CCOCC2)c1
  Hsc70: 0.5% | WNV protease inh: -1.2 | MT1-MMP reporter: i
(11) O=C(O)c1cc2cc(Cl)ccc2oc1=O
  Hsc70: -4.7% | WNV protease inh: -0.82 | MT1-MMP reporter: i
(12) O=C(C1CCCO1)N1CCN(S(=O)(=O)c2cccc3nsnc23)CC1 (stereo unspecified)
  Hsc70: 3.3% | WNV protease inh: -0.47 | MT1-MMP reporter: i
(13) CC(C)n1c(=NC(=O)c2ccco2)c(C#N)cc2c(=O)n3ccccc3cc21
  Hsc70: 2.1% | WNV protease inh: 0.91 | MT1-MMP reporter: i
(14) C=CCn1c(SCC(=O)NC(=O)NCc2ccco2)nc2sc(CC)cc2c1=O
  Hsc70: -5.1% | WNV protease inh: -0.67 | MT1-MMP reporter: i
(15) CCCNC(=O)C1CN(S(=O)(=O)c2ccccc2)CCN1S(=O)(=O)c1ccccc1 (stereo unspecified)
  Hsc70: 2.9% | WNV protease inh: 0.72 | MT1-MMP reporter: i

(16) COc1ccc(N(CC(=O)NC2CCCC2)C(=O)c2ccc(N3CCCCC3)nc2)cc1
  Hsc70: 6.2% | WNV protease inh: -0.59 | MT1-MMP reporter: i
(17) COc1ccc(S(=O)(=O)N(C)CC(=O)Nc2ccc(C(F)(F)F)cc2)cc1Cl
  Hsc70: 4.5% | WNV protease inh: · | MT1-MMP reporter: i
(18) CC1(C)CC(=O)C2=C(C1)NCN(Cc1ccc3c(c1)OCO3)C2
  Hsc70: -4.9% | WNV protease inh: 1.6 | MT1-MMP reporter: i
(19) O=C1Nc2ncccc2OC1CCCl (stereo unspecified)
  Hsc70: -3.3% | WNV protease inh: · | MT1-MMP reporter: i
(20) Cc1sc2ncnc(NCc3ccco3)c2c1C
  Hsc70: 2.0% | WNV protease inh: -0.43 | MT1-MMP reporter: i
(21) O=c1/c(=C\c2cccn2-c2ccccc2)sc2nc3ccccc3n12
  Hsc70: -5.1% | WNV protease inh: -0.01 | MT1-MMP reporter: i
(22) COc1ccc(S(=O)(=O)Nc2nnc(C(C)(C)C)s2)cc1
  Hsc70: -7.0% | WNV protease inh: -0.54 | MT1-MMP reporter: i
(23) CCc1ccc(-c2nc(CSCC(=O)NCCCN3CCCC3=O)c(C)o2)cc1
  Hsc70: -2.6% | WNV protease inh: 1.3 | MT1-MMP reporter: i
(24) O=C(C1CCN(S(=O)(=O)c2ccc3c(c2)OCCO3)CC1)N1CCc2ccccc21
  Hsc70: -3.5% | WNV protease inh: -0.43 | MT1-MMP reporter: i
(25) OCCOc1ccc(C2=NCCO2)cc1
  Hsc70: -2.3% | WNV protease inh: -1.6 | MT1-MMP reporter: i
(26) Cc1cc(=O)[nH]c(SCC(=O)N2CCC(C(N)=O)CC2)n1
  Hsc70: -2.0% | WNV protease inh: 0.79 | MT1-MMP reporter: i
(27) Cc1onc(-c2ccccc2Cl)c1C(=O)Nc1sc2c(c1C#N)CCC2
  Hsc70: -11% | WNV protease inh: 0.52 | MT1-MMP reporter: i
(28) CC1(c2ccc3noc(-c4ccccc4)c3c2)OCCO1
  Hsc70: -0.1% | WNV protease inh: -0.03 | MT1-MMP reporter: i
(29) O=C(Oc1ccc(OC(=O)c2ccncc2)cc1)c1ccncc1
  Hsc70: -8.8% | WNV protease inh: 0.11 | MT1-MMP reporter: i
(30) Cc1ccc(NC(=O)CC2NCCNC2=O)cc1 (stereo unspecified)
  Hsc70: -2.6% | WNV protease inh: -1.1 | MT1-MMP reporter: i

(31) CCc1ccc2c(c1)c1nc(C)sc1n2CC
  Hsc70: 3.2% | WNV protease inh: -1.1 | MT1-MMP reporter: i
(32) CC(=O)Nc1sc(N)nc1-c1ccccc1
  Hsc70: 2.9% | WNV protease inh: 2.6 | MT1-MMP reporter: i
(33) CCn1c(=O)c(=O)[nH]c2cc(C(=O)N3CCN(c4ccccc4F)CC3)ccc21
  Hsc70: -1.5% | WNV protease inh: 0.34 | MT1-MMP reporter: i
(34) Cc1ccc(-c2c3c(=O)n(C)c(=O)n(C)c3c3c(C)cc(C)nn23)cc1
  Hsc70: 15% | WNV protease inh: 0.72 | MT1-MMP reporter: i
(35) Cc1c(NC(=O)c2c(F)c(F)c(F)c(F)c2F)c(=O)n(-c2ccccc2)n1C
  Hsc70: 6.4% | WNV protease inh: -0.46 | MT1-MMP reporter: i
(36) CC(NC(=O)c1ccc(=O)oc1)c1ccccc1 (stereo unspecified)
  Hsc70: -3.5% | WNV protease inh: -1 | MT1-MMP reporter: i
(37) CCC1CCCCN1CCNC(=O)CCS(=O)(=O)c1ccc(Br)cc1 (stereo unspecified)
  Hsc70: 1.3% | WNV protease inh: · | MT1-MMP reporter: i
(38) COc1cc(S(=O)(=O)N2CCC(c3nc4ccccc4s3)CC2)ccc1S(=O)(=O)N1CC(C)CC(C)C1 (stereo unspecified)
  Hsc70: 0.7% | WNV protease inh: · | MT1-MMP reporter: i
(39) N#Cc1nc(-c2ccc(Cl)cc2)oc1NCc1ccco1
  Hsc70: -1.5% | WNV protease inh: -1.3 | MT1-MMP reporter: i
(40) Cn1c(C(=O)N2CCN(c3ncccn3)CC2)cc2c(=O)n(C)c3ccccc3c21
  Hsc70: 0.0% | WNV protease inh: -1.1 | MT1-MMP reporter: i
(41) COc1ccc(-c2nnc(SCC(=O)N3CCOCC3)n2C)cc1OC
  Hsc70: 4.0% | WNV protease inh: · | MT1-MMP reporter: i
(42) CC1=C(C(=O)OC(C)C)C(c2cccnc2)n2ncnc2N1 (stereo unspecified)
  Hsc70: 0.5% | WNV protease inh: 0.22 | MT1-MMP reporter: i
(43) CC(NC(=O)C1CC1)C(c1cccs1)N1CCN(c2ccccc2)CC1 (stereo unspecified)
  Hsc70: 1.3% | WNV protease inh: -0.03 | MT1-MMP reporter: i
(44) c1ccc(CSc2nnc(-c3ccco3)n2Cc2ccccc2)cc1
  Hsc70: 0.8% | WNV protease inh: 0.68 | MT1-MMP reporter: i
(45) O=C(c1ccccc1-c1ccccc1)N1CCOCC1
  Hsc70: -7.0% | WNV protease inh: -0.71 | MT1-MMP reporter: i

(46) S=c1[nH]ncn1/N=C/c1ccc(Br)cc1
  Hsc70: 8.8% | WNV protease inh: 1.5 | MT1-MMP reporter: i
(47) O=C(CCN1CCCCC1)c1ccccc1
  Hsc70: -2.3% | WNV protease inh: · | MT1-MMP reporter: i
(48) COC(=O)c1ccccc1NC(=O)CN(c1ccc(OC)cc1)S(C)(=O)=O
  Hsc70: 0.2% | WNV protease inh: · | MT1-MMP reporter: i
(49) COc1ccc(S(=O)(=O)N2CCC(C(N)=O)CC2)cc1
  Hsc70: 0.7% | WNV protease inh: -1.9 | MT1-MMP reporter: i
(50) Cc1ccc(C)c(N2CCN(S(=O)(=O)c3ccc4c(c3)oc(=O)n4C)CC2)c1
  Hsc70: 2.6% | WNV protease inh: 0.44 | MT1-MMP reporter: i
(51) c1ccc(N2CCN(Cc3nnnn3C3CCCCC3)CC2)cc1
  Hsc70: -6.3% | WNV protease inh: -0.17 | MT1-MMP reporter: i
(52) Cc1nc2nc(SCC(=O)C(C)(C)C)[nH]c2cc1Br
  Hsc70: -2.5% | WNV protease inh: 0.9 | MT1-MMP reporter: i
(53) COc1ccc(S(=O)(=O)Nc2cc(C(=O)NC3CCCCCC3)ccc2N2CCOCC2)cc1
  Hsc70: 1.2% | WNV protease inh: -0.63 | MT1-MMP reporter: i
(54) Clc1ccc(-c2nn3c(C4COc5ccccc5O4)nnc3s2)cc1 (stereo unspecified)
  Hsc70: -1.4% | WNV protease inh: -0.39 | MT1-MMP reporter: i
(55) COc1ccc2c(c1OC)C(=O)OC2CC(=O)c1ccc(N(C)C)cc1 (stereo unspecified)
  Hsc70: 4.2% | WNV protease inh: -0.93 | MT1-MMP reporter: i
(56) Cc1nnc(SCC(=O)Nc2ccc(Br)cn2)[nH]c1=O
  Hsc70: 0.2% | WNV protease inh: -0.15 | MT1-MMP reporter: i
(57) COc1nc(OC)nc(N(C)CCO)n1
  Hsc70: -5.8% | WNV protease inh: 0.88 | MT1-MMP reporter: i
(58) COc1ccc(C(=O)Cn2c(=O)c(CCC(=O)O)nn3c4ccccc4nc23)cc1OC
  Hsc70: -2.7% | WNV protease inh: -1.2 | MT1-MMP reporter: i
(59) CC1CCCCN1C(=O)Cn1cc(C#N)c2ccccc21 (stereo unspecified)
  Hsc70: 6.3% | WNV protease inh: · | MT1-MMP reporter: i
(60) CCC(C)(C(=O)NC1CCCCC1)N(CC1CCCO1)C(=O)CNC(=O)c1ccccc1 (stereo unspecified)
  Hsc70: -1.3% | WNV protease inh: · | MT1-MMP reporter: i

(61) O=C(Nc1cnn(Cc2ccc(Cl)cc2Cl)c1)c1noc2c1CCCC2
  Hsc70: 3.0% | WNV protease inh: -0.15 | MT1-MMP reporter: i
(62) CSc1ccccc1C(=O)Nc1cccc(N(C)S(C)(=O)=O)c1
  Hsc70: -3.3% | WNV protease inh: -0.27 | MT1-MMP reporter: i
(63) CCOc1ccc(Br)cc1CC(=O)O
  Hsc70: 4.9% | WNV protease inh: 0.04 | MT1-MMP reporter: i
(64) COc1ccc(CC(=O)Nc2cc(C)on2)cc1OC
  Hsc70: 9.9% | WNV protease inh: · | MT1-MMP reporter: i
(65) COc1ccccc1CN1CCN(C(CC(C)C)c2nnnn2Cc2cccs2)CC1 (stereo unspecified)
  Hsc70: 3.4% | WNV protease inh: -1 | MT1-MMP reporter: i
(66) CCc1c(C)c(C#N)c2nc3ccccc3n2c1NCCN(C)C
  Hsc70: 4.7% | WNV protease inh: -0.18 | MT1-MMP reporter: i
(67) CCN1CCn2c1nc(N1CCCCC1)nc2=O
  Hsc70: 3.7% | WNV protease inh: -0.1 | MT1-MMP reporter: i
(68) CCOC(=O)c1nnn(CC(=O)Nc2cccc(F)c2)c1C(=O)OCC
  Hsc70: -0.4% | WNV protease inh: -0.01 | MT1-MMP reporter: i
(69) N#CCSc1nc2c(sc(=S)n2Cc2ccco2)c(=O)n1-c1ccc(F)cc1
  Hsc70: -7.0% | WNV protease inh: 0.64 | MT1-MMP reporter: i
(70) CCCCCC(=O)Nc1nc2ccccc2[nH]1
  Hsc70: 0.1% | WNV protease inh: · | MT1-MMP reporter: i
(71) OC1(c2cn(Cc3ccccc3)nn2)CCCCC1
  Hsc70: -2.7% | WNV protease inh: -1.8 | MT1-MMP reporter: i
